# VDR inhibitor = inhibitors of human vitamin D receptor. P11473. VDR-SRC2-3 peptide fluorescence polarization, 2 h. Potency, µM, for inactives: max response, negative = inhibition, usual class: inhibitors. actives 0.93% (n = 400,000). AID 504847; active = well fitted inhibition curve with a large enough effect; inconclusive = small, poorly fitted or top-dose-only effect, or another doubt; inactive = no such curve, though single readings can be large or run the other way; note: series mostly up to about 120 µM
# Target sequence (P11473 whole entry, looked up): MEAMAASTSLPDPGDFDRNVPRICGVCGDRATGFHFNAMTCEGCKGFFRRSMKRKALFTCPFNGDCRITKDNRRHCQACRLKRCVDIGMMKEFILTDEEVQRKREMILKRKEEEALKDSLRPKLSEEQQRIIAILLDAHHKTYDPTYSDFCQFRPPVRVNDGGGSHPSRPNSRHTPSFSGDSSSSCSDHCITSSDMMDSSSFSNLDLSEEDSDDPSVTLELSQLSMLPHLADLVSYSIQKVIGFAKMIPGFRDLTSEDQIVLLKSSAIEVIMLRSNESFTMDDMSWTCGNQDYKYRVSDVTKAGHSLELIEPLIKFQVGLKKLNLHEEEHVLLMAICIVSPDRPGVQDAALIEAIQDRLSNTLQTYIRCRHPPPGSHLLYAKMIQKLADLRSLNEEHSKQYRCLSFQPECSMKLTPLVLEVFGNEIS
#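 VDR–SRC2-3 interaction, FP format. Cmpds 23 nl via pintool, brief spin, 2 h ambient incubation.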
# An asterisk follows results filed as active; ? = inconclusive; & = joins results of further samples. % is set by controls: 0 for no effect and ±100 for the full control effect; potency is the fitted concentration of half-maximal effect. Only part of the results is shown, so the mix of outcomes need not match the whole.
VDR inhibitor	SMILES
1%	Cc1cnc(NC(=O)c2cc3c(C)nn(Cc4ccccc4Cl)c3s2)s1
10%	N#CCCn1c(-c2nonc2NC(=O)c2ccccc2Cl)nc2ccccc21
11%	CCOC(=O)C1=C(CN2CCC(C)CC2)NC(=O)NC1c1ccc(F)cc1 (stereo not drawn)
-6%	CCCOc1ccccc1N/C(=N/c1nc(C)cc(C)n1)NC(=O)COc1ccc(OC)cc1
-1%	Cc1ccc(C)c(Cn2nnc3c(=O)[nH]c(C(=O)NCc4ccco4)nc32)c1
20%	CCc1ccc(NC(=O)c2nn(-c3ccc(C)cc3)c(=O)n(C)c2=O)cc1
-2%	COc1ccc(C(CNC(=O)c2cc(S(=O)(=O)Nc3cccc(C)c3)ccc2C)N2CCCC2)cc1 (stereo not drawn)
5%	COc1ccc(OC)c2c1cc(C(=O)N[C@@H](C)C(=O)N[C@@H](C(=O)O)c1ccccc1)n2C
-3%	CN(CCC#N)C(=O)COc1ccc(Br)cc1Cl
4%	O=C(CN(C(=O)CCC(=O)Nc1nccs1)c1cccc(F)c1)NCc1ccc(F)cc1
14µM*	CC(=O)OCCNc1cc(Sc2nc3ccccc3[nH]2)c2nonc2c1[N+](=O)[O-]
-1%	CCOc1ccc2c(c1)ncn2Cc1ccccc1
-1%	CCC(=O)Nc1sc(C(=O)Nc2ccccc2)c(C)c1C(=O)OC
3%	Nc1cc(=O)[nH]c(SCc2ccc(Cl)cc2Cl)n1
0%	CCOc1ccc(CN(C)C(=O)CNC(=O)C2CCCCC2)cc1
1%	COC(=O)C(C)n1cnc2c(nnn2-c2cccc(OC)c2)c1=O (stereo not drawn)
-4%	Cc1ccccc1C(=O)NC(=S)Nc1ccc(S(=O)(=O)N2CCN(C)CC2)cc1
4%	Cn1c(=O)c2c(nc(N3CCOCC3)n2CCSc2ncccn2)n(C)c1=O
-8%	Cc1c(NC(=O)CSc2nccn2C)c(=O)n(-c2ccccc2)n1C
13%	COc1cccc(/C=N\NC(=O)C2C(=O)NCC2c2ccccc2)c1O (stereo not drawn)
2%	COCCCn1c(SCC(N)=O)nnc1-c1ccccc1
11%	COc1cccc(OC(=O)CSc2nnc(-c3cccs3)o2)c1
8%	O=C1c2oc3ccccc3c(=O)c2C(c2cccc(O)c2)N1c1ccccn1 (stereo not drawn)
-5%	Cc1c(C(=O)NCC2CCCO2)oc2ccccc12 (stereo not drawn)
-2%	COC(=O)c1cc2oc3ccccc3c2n1CC(=O)Nc1ccc(F)c(Cl)c1
-7%	COc1ccc(S(=O)(=O)N2CCCCCC2)cc1C(=O)N(C)CCOc1ccccc1
13%	Cc1ccc(C(=O)N/C(=C\c2cn(S(=O)(=O)N(C)C)c3ccccc23)C(=O)N2CCCC2)cc1
-14%	O=S(=O)(Cc1ccccc1)N1CCN(Cc2ccc(Br)cc2)CC1
-3%	O=[N+]([O-])c1cccc(/C=N/NC2=NS(=O)(=O)c3ccccc32)c1
2%	NC(=O)CCCCC1CCSS1 (stereo not drawn)
-14%	CCCC(=O)N=C1SC2CS(=O)(=O)CC2N1c1ccc(-c2nc3ccc(C)cc3s2)cc1 (stereo not drawn)
1%	COc1ccc(C(=O)NCC(C)C)c(OC)c1
4%	COc1ccccc1/C=C1\SC(=S)N(CCC(=O)NC2=NCCS2)C1=O
-12%	CC(=O)N1c2ccccc2[C@@H](C)[C@@H]1C
-5%	COc1ccc(C2(C)NC(=O)N(CC(=O)NCc3ccccc3F)C2=O)cc1 (stereo not drawn)
-2%	CCN(CC)c1ccc(NC(=O)c2ccc3c(c2)OCO3)cc1
-11%	COc1cc(CC(=O)Nc2ccc(S(=O)(=O)NC3=NCCCCC3)cc2)cc(OC)c1OC
3%	COc1ccc(CNc2ncnc3c2cnn3-c2ccc(C)c(C)c2)cc1
-16%	CCc1cccc(CC)c1NC(=S)NCc1ccc2c(c1)OCO2
16%	COc1ccc(Oc2cc(C(F)(F)F)nc(N(C)C)n2)cc1

# Exported bar-delimited: part of the list above.
SMILES | VDR inhibitor
CCc1cccc(CC)c1NC(=S)NCc1ccc2c(c1)OCO2 | -16%
COc1ccc(C(=O)NCC(C)C)c(OC)c1 | 1%

# The list goes on:
VDR inhibitor	SMILES
-1%	COCCn1c(SCC(=O)Nc2cc(C)cc(C)c2)nc2ccccc2c1=O
-7%	O=C(Nc1cccc(Cl)c1N1CCOCC1)c1ccco1
-3%	COc1ccccc1CN1CCNC(=O)C1CC(=O)NCCOc1cccnc1 (stereo not drawn)
10%	CCCCNC(=O)C(C)N(CCN(C)C)C(=O)CCCCCN1C(=O)NC(c2ccc(Cl)cc2)C(C(=O)OCc2ccccc2)=C1C (stereo not drawn)
-7%	COCCn1c(SCC(=O)c2cc(C)ccc2C)nc2cc(C(=O)NC3CCCC3)ccc2c1=O
16%	Cc1ccc(NC(=O)Nc2ccc3nc(N4CCN(C)CC4)cc(C)c3c2)cc1F
14%	c1ccc(-c2nc(N3CCCCC3)nc3ccccc23)cc1
-16%	COCc1cc(=O)[nH]c(-c2ccccc2)n1
8%	COc1cc2c(cc1OC)CC(=O)N(CCCN(C)C[C@H]1Cc3cc(OC)c(OC)cc31)CC2
-3%	N#Cc1c(NC(=O)c2cccnc2)sc2c1CCC2

# Reprinted from the part before: 7 compounds; new compounds follow.
VDR inhibitor	SMILES
10%	CCCCNC(=O)C(C)N(CCN(C)C)C(=O)CCCCCN1C(=O)NC(c2ccc(Cl)cc2)C(C(=O)OCc2ccccc2)=C1C (stereo not drawn)
-7%	COCCn1c(SCC(=O)c2cc(C)ccc2C)nc2cc(C(=O)NC3CCCC3)ccc2c1=O
16%	Cc1ccc(NC(=O)Nc2ccc3nc(N4CCN(C)CC4)cc(C)c3c2)cc1F
14%	c1ccc(-c2nc(N3CCCCC3)nc3ccccc23)cc1
-16%	COCc1cc(=O)[nH]c(-c2ccccc2)n1
8%	COc1cc2c(cc1OC)CC(=O)N(CCCN(C)C[C@H]1Cc3cc(OC)c(OC)cc31)CC2
-3%	N#Cc1c(NC(=O)c2cccnc2)sc2c1CCC2
-21%	CCCCCc1cc(=O)[nH]c(=S)[nH]1
5%	O=C(Oc1ccccc1)c1cccc(COC(=O)c2cnccn2)c1
2%	Cc1cccc(NC(=O)CN2C(=O)N/C(=C\c3ccccc3OCc3ccc(C(=O)O)cc3)C2=O)c1
22%	COCCn1c(SCC(=O)Nc2ccccc2OC)nc2c(oc3ccccc32)c1=O
-9%	Cc1ccc2nc(-c3cccc(Br)c3)cc(C(=O)NC3CC3)c2c1
-1%	NC(=O)Nc1ccc(Cl)cc1
-5%	C[C@]12c3[nH]c4ccc(Cl)cc4c3CCN1C(=O)[C@@H](CC(=O)NCCN1CCOCC1)C[C@@H]2C(=O)N1CCCCC1
-2%&-1%	CCOC(=O)C1CCN(c2cc3c(cc2NC(=O)c2ccc(OC)c(OC)c2)n(C)c(=O)n3C)CC1
6%	Cc1cccc2cc(CN(Cc3ccccc3)C(=O)N(C)C)c(=O)[nH]c12
-4%	O=C(CSc1nnc2ccccn12)N1CCc2ccccc21
14%	CCOc1ncccc1C(=O)OCc1cn2cc(Cl)ccc2n1
-18%	O=c1c2c(ncn2C2CCCC2)n(Cc2ccccc2)c(=O)n1CCOc1ccccc1
-11%	CCC1CCCCN1CCCNC(=O)Cn1cnc2sc(C)c(S(=O)(=O)N3CC(C)CC(C)C3)c2c1=O (stereo not drawn)
6%	CCCOc1ccc(C2C(=O)N(C3CCC(C)CC3)CC(=O)N2Cc2cccc(OC)c2)cc1OC (stereo not drawn)
1%	O=C(c1ccc(Cl)cc1)c1coc2ccc(O)cc12
-7%	CCOc1cc(-c2c(C#N)c(N)nc3c2CCCC3C)ccc1O (stereo not drawn)
-16%	CC1C(=O)C(C)C(c2ccc(Br)cc2)NC1c1ccc(Br)cc1 (stereo not drawn)
-7%	O=C(CN1CCN(S(=O)(=O)c2ccc(Cl)s2)CC1)NCc1ccc(Cl)cc1
0%	COC(=O)/C=C1\S/C(=N/N=C/c2ccccc2)NC1=O
-5%	CCOC(=O)N1CCN(C(=O)Nc2ccc(Cl)cc2)CC1
16%	CCOC(=O)/C=C1\SCC(=O)N1CC(O)CN1C(=O)CS/C1=C/C(=O)OCC (stereo not drawn)
3%	CC(C)CN(C(=O)COc1ccc(C(C)(C)C)cc1)C1CCS(=O)(=O)C1 (stereo not drawn)
-5%	CCNC(=O)CN1C(=O)NC2(CCCCCC2)C1=O
-10%	CC(C)OC(=O)C1=C(N)N2C(=O)CSC2=C(C(=O)OC(C)C)C1
-20%	CCN(Cc1ccncc1)C(=O)c1ccccc1NS(=O)(=O)c1ccc(Br)cc1
5%	Cc1cccc(N2C(=O)CN(Cc3sccc3C)C2=S)c1
2%	COc1cc(NC(=O)c2ccccc2C)c(OC)cc1NC(=O)CN1CCOCC1
-2%	Cc1ccc(C(=O)NNS(=O)(=O)c2ccc(F)cc2)cc1
6%	C=C1CCC2C(CC2(C)C)C(=O)CCC1O (stereo not drawn)
-12%	O=C(CCN1CCOCC1)NNC(=S)NC(=O)c1ccccc1
7%	CCC(CC)C(=O)Nc1ccc(S(=O)(=O)Nc2nccs2)cc1
-5%	N#C/C(=C\c1cccnc1)C(=O)Nc1ccc(C(=O)O)cc1
-20%	O=C(COC(=O)COc1ccc(Cl)cc1)Nc1ccc(N2CCOCC2)cc1
-4%	COC(=O)c1ccccc1NC(=O)Nc1ccc(C)cn1
-14%	C=C1c2ccc(C)cc2NC(=O)N1c1ccccc1
-7%	Fc1ccc(CSc2nnc3ccccn23)c(Cl)c1
-2%	COC(=O)c1ccc(NC(=O)c2ccco2)cc1
?	COC(=O)c1ccccc1NC(=O)c1nc(S(=O)(=O)Cc2cccc(C)c2)ncc1Cl
19%	Cc1ccc(Cl)cc1NC(=O)c1oc2ccc(S(=O)(=O)N3CCC4(CC3)OCCO4)cc2c1C
-16%	COc1cccc(NC(=O)CN(C)C(=O)C2CC(=O)N(CCc3ccc(OC)c(OC)c3)C2)c1 (stereo not drawn)

# An excerpt from above in order of the VDR inhibitor value, lowest first:
VDR inhibitor	SMILES
-20%	O=C(COC(=O)COc1ccc(Cl)cc1)Nc1ccc(N2CCOCC2)cc1
-14%	O=S(=O)(Cc1ccccc1)N1CCN(Cc2ccc(Br)cc2)CC1
-8%	Cc1c(NC(=O)CSc2nccn2C)c(=O)n(-c2ccccc2)n1C
-2%	COc1ccc(C(CNC(=O)c2cc(S(=O)(=O)Nc3cccc(C)c3)ccc2C)N2CCCC2)cc1 (stereo not drawn)
-1%	Cc1ccc(C)c(Cn2nnc3c(=O)[nH]c(C(=O)NCc4ccco4)nc32)c1

# Later entries.
VDR inhibitor	SMILES
7%	CCc1cccc(CC)c1NC(=S)Nc1cccc(Cl)c1Cl
5%	CC1=CC23C(=O)C(C=C(CO)[C@@H](O)[C@]2(O)[C@H]1O)[C@H]1[C@@H](C[C@H]3C)C1(C)C (stereo partly drawn)
-14%	CC(C)c1ccc(NC(=O)Nc2csc3c2CCCC3)cc1
-17%	COc1ccc([C@H]2CC(=O)C=C(c3cccc(OCc4ccccc4)c3)C2)cc1
-2%	COc1ccccc1NC(=O)C/C(N)=N/OCC(=O)Nc1cccc(Cl)c1
-14%	Cc1ccc(NC(=O)C(NC2CCCC2)c2ccccc2)cc1Cl (stereo not drawn)
1%	CC(=O)Nc1ccc(NC(=O)c2cc(=O)c3cc(C)cc(C)c3o2)cc1
-20%	CN(C1=C(NC(=O)c2ccccc2)C(=O)c2ccccc2C1=O)C1CCS(=O)(=O)C1 (stereo not drawn)
-3%	CSc1nc2ccc(NS(=O)(=O)c3ccccc3F)cc2s1
2%	Cc1ccc(N(CN2CCCC2=O)C(=O)c2ccc(C)c(C)c2)cc1
14%	O=C1c2[nH]nc(-c3ccccc3O)c2C(c2cccc(Cl)c2)N1Cc1cccnc1 (stereo not drawn)
-11%	CCSCc1nnc(SCC(=O)Nc2ccc(F)cc2)n1CC
0%	O=C(CSc1nnc(-c2ccco2)n1Cc1ccco1)NCc1cccs1
-2%	CCN1CCN(c2ncnc3c2cnn3-c2cc(Cl)ccc2C)CC1
3%	O=C(O)CCCC(=O)NS(=O)(=O)c1ccc(Cl)cc1
-1%	CCOC(=O)CSC1=C(C#N)C(c2ccccc2Cl)C(C(=O)OC)C(=O)N1 (stereo not drawn)
-20%	CCCCCCCCCCCC(=O)NC(Cc1ccc(OC)c([N+](=O)[O-])c1)C(=O)O (stereo not drawn)
10%	COc1ccc(C(CCc2cc(OC)c(OC)c(OC)c2)NC(C)=O)cc1 (stereo not drawn)
-6%	COc1ccc2[nH]c3c(=O)n4c(nc3c2c1)SCCC4
-11%	COc1ccc(Cl)cc1NC(=O)Cn1c(=O)n(CCC(=O)NCc2ccc3c(c2)OCO3)c(=O)c2ccccc21
-1%	COc1ccc(C(=O)NC(=S)NNC(=O)c2ccccc2O)cc1
1%	O=C(c1cccc2ccccc12)N1CCN(S(=O)(=O)c2ccccc2)CC1
-7%	CC(=O)Nc1ccc(CCCCc2ccccc2)cc1
-18%	C#CCOCCOCCOCCNc1nc(N2CCN(C(=O)Cn3cc(CC(C)O)nn3)CC2)nc(N2CCN(C(=O)[C@H]([C@@H](C)CC)n3cc(CCCN=C(N)N)nn3)CC2)n1 (stereo partly drawn)
-21%	COc1cc(C2C(C(C)=O)=C(O)C(=O)N2c2ccc(Br)cn2)ccc1O (stereo not drawn)
-13%	CNC(=O)N(O)C1N(/N=C/c2ccccc2F)C(=S)SC1(C)C (stereo not drawn)
-5%	CS(=O)(=O)c1ccc(C(=O)OCC(=O)NC(=O)Cc2ccccc2)cc1
5%	CCCNC(=O)C1CCN(C(=O)N2CC(C)Oc3ccccc32)CC1 (stereo not drawn)
-7%	C=CCNC(=O)c1nc2ccccc2s1
6%	Cc1cc(N2CCCC2=O)cc(C)c1S(=O)(=O)NCCOc1ccccc1
-9%&-5%	COc1ccc(C)cc1NC(=O)CN(C)S(=O)(=O)c1ccc2c(c1)c(=O)n(C)c(=O)n2C
-13%	N#Cc1cc([N+](=O)[O-])cnc1Nc1ccccc1
4%	CCCOc1cccc(C(=O)Nc2cccc3cccnc23)c1
-3%	O=C(CSc1nnnn1C1CC1)Nc1cccc(S(=O)(=O)N2CCCC2)c1

# Screening results as filed in PubChem BioAssay.
